# Assay outcomes from PubChem.
# 2A Renilla: lowers the Renilla signal of an FMDV 2A StopGo reporter. AID 1745857. Potency, µM (titrated, usually from 57.5 µM), without a hit: top-dose signal change, negative = less light. HEK cells with a luciferase reporter of 2A StopGo recoding. hit rate 0.32% among 120,000; active means well fitted falling curve with a large enough effect; inconclusive means small, poorly fitted or top-dose-only effect; inactive means no such curve, though single readings can be large or run the other way; note: nearly all actives have a fitted effect of over 55% in size; overnight with compound
# StopGo FLuc: lowers the firefly signal of an FMDV 2A StopGo reporter; HEK cells with a luciferase reporter of 2A StopGo recoding; Potency, µM (titrated, usually from 57.5 µM), for the others: at the top dose signal change, negative = less light; hit rate 0.23% among 120,000; active = well fitted falling curve with a large enough effect; inconclusive = small, poorly fitted or top-dose-only effect; inactive = no such curve, though single readings can be large or run the other way; note: nearly all actives have a fitted effect of over 60% in size; overnight with compound
# An asterisk follows results filed as active; ? = inconclusive; & = joins results of further samples; [ ] = remark or other dose. % is set by controls: 0 for no effect and ±100 for the full control effect; potency is the fitted concentration of half-maximal effect.
# The opening 3 entries, ahead of the listing:
SMILES,2A Renilla,StopGo FLuc
CC(=O)Nc1cccc(C(C)NCc2csc(C)n2)c1 (stereo not given),10%,2%
Cn1c2ccccc2c2cnn(CC(=O)NCc3ccc(Cl)cc3)c(=O)c21,-6%,-5%
Cc1ccc2c(C)c(CCC(=O)N3CCCCCCC3)c(=O)oc2c1,46%[activator],70%[activator]

# The list itself, previewed entries included:
SMILES,2A Renilla,StopGo FLuc
CC(=O)Nc1cccc(C(C)NCc2csc(C)n2)c1 (stereo not given),10%,2%
Cn1c2ccccc2c2cnn(CC(=O)NCc3ccc(Cl)cc3)c(=O)c21,-6%,-5%
Cc1ccc2c(C)c(CCC(=O)N3CCCCCCC3)c(=O)oc2c1,46%[activator],70%[activator]
C#CCSc1nc(-c2ccccc2)c2cc(Cl)ccc2n1,-7%,-20%
Oc1cc(O)c2c(c1)O[C@H](c1ccc(O)c(O)c1)[C@H](O)C2,-11%,-15%
Cc1c(C)c2cc(Cl)c(OCC(=O)NCc3cccnc3)cc2oc1=O,-4%,10%
Cn1cc(/C=C/c2nc3ccccc3c(=O)n2-c2ccccc2)c2ccccc21,-8%,-7%
FC(F)(F)c1ccc(/C=N/Nc2ccc(Cl)c(Cl)c2)cc1,7%,138%[activator]
CC(NS(=O)(=O)c1cccs1)c1ccccn1 (stereo not given),38%[activator],8%
O=C(Cn1c(=O)n(CC2CCC(C(=O)NCCc3ccccc3)CC2)c(=O)c2ccccc21)Nc1cccc(F)c1 (stereo not given),-9%,-9%
O=c1c2sc3ccccc3c2n(Cc2ccccc2)c(=O)n1CCc1ccccc1,-7%,22%
COC(=O)c1sc(N)c(C#N)c1C,14%,9%
Cc1ccc(C)c(NC(=O)CCc2c(C)nn(-c3ccc(N4CCCC4)nn3)c2C)c1,-11%,-28%
CC(C)c1ccccc1NC(=O)CSc1ccccc1Cl,?,7%
CCCC1C(c2ccc(Cl)cc2)NC(c2ccc(Cl)cc2)C(C)C1(O)CCC (stereo not given),?,?
N#Cc1cccc(NC(=O)CNc2ccccc2C(N)=O)c1,14%,0%
CC(C)Cn1nc(NC(=O)c2cccc(Cl)c2)c2cc3ccccc3nc21,-13%,13%
Cc1cc(C)cc(-n2ccnc(NCc3ccc(F)cc3)c2=O)c1,10%,-4%
COc1ccc2c(c1)cc(CNc1ccc(OC)c(OC)c1)c(=O)n2CC(=O)Nc1ccccc1C,-2%,1%
CCCCn1nc(C(=O)Nc2ccc(OC)c(OC3CCCC3)c2)c2ccccc2c1=O,1%,4%

# Single records (already shown). Order of values: 2A Renilla	StopGo FLuc
# CC(C)c1ccccc1NC(=O)CSc1ccccc1Cl as listed: ?	7%
# CC(NS(=O)(=O)c1cccs1)c1ccccn1 (stereo not given) as listed: 38%[activator]	8%

# The list goes on:
SMILES,2A Renilla,StopGo FLuc
O=C(NCc1ccco1)c1ccc2c(c1)N(Cc1ccccc1F)C(=O)c1ccccc1S2(=O)=O,133%[activator],-18%
Cc1ccccc1OCC(=O)Nc1ccc2oc(-c3ccccc3C)nc2c1,7%,137%[activator]
Cc1cc(-c2ccccc2)c2c3c(c(-c4ccccc4)n2n1)c(=O)n(C)c(=O)n3C,-3%,9%
CC(C)=CCN1CC[C@@]2(C)c3cc(O)ccc3C[C@@H]1[C@@H]2C,-16%[114 µM],0%[22.9 µM]
CC(C)c1ccc(/C=C(/C#N)C(=O)Nc2ccc(N3CCOCC3)cc2)cc1,0%,4%
Cc1ccc2ncc([N+](=O)[O-])cc2c1,-11%,8%
COc1ccc(C(=O)/C(C#N)=C\c2ccc(OC(F)F)c(OC)c2)cc1,18%,15%
COc1ccc(/C=C(/C#N)c2nc3ccccc3o2)cc1OC,6%,23%
COC(=O)c1cccc(NC(=O)CSc2ncnc3c(-c4ccc(OC)cc4)c[nH]c23)c1,-2%,32%
CCCn1c(=O)n(CCC(=O)N(C)CC(=O)Nc2ccccc2Cl)c2ccccc21,7%,-8%
C/C(=N/NC(=O)C1CC1c1ccccc1)c1ccc(CC(C)C)cc1 (stereo not given),4%,-13%
CCOc1ccccc1CNCCc1ccccc1,-8%,-6%
CCCOc1ccc2c(=O)c(-c3ccccc3)coc2c1C,8%,227%[activator]
CCOC(=O)c1c(C)[nH]c(C(=O)CSc2nnc(C)s2)c1C,0%,201%[activator]
CNC(=O)C1CN(C(=O)c2nn(-c3ccccc3)c(=O)c3ccccc23)c2ccccc2O1 (stereo not given),9%,-5%
COc1cc(CNn2cnnc2)cc(Br)c1OCc1ccc(F)cc1,?,?
CCN(CC)C(=O)c1ccc(C(CCOC(=O)Oc2ccccc2)c2ccc(OC)cc2)cc1 (stereo not given),0%,0%
COC(=O)COc1ccc2ccc(=O)oc2c1,-1%,-3%
O=C1Nc2cc(C(=O)N3CCN(c4ccccc4)CC3)ccc2N2CCCC12 (stereo not given),-9%,-7%
CCN1C(=O)c2ccccc2S(=O)(=O)c2ccc(C(=O)NCc3ccccc3Cl)cc21,0%,2%
COCCCNc1nc2c(c(=O)n(Cc3ccc(F)cc3)c(=O)n2C)n1C,0%,71%[activator]
O=C(O)CCn1cnc2onc(-c3cc(F)cc(F)c3)c2c1=O,67%[activator],99%[activator]
Cc1c(Cl)cccc1NC(=O)C(=O)NCCc1csc2nc(-c3ccccc3F)nn12,-8%,16%
O=C(NCCCc1nc2ccccc2n1Cc1cccc(Cl)c1)C1CCCCC1,10%,0%
CCOc1ccc(NC(=O)c2cc3cc(C)ccc3n2C)cc1,6%&-1%,0%&-2%
O=S(=O)(Nc1cccc2c1CCCC2)c1ccc(F)c(F)c1,78%[activator],21%
NC(=S)N/N=C/c1ccc(C2C=CCC2)s1 (stereo not given),1%,30%
O=C1CC(C(=O)Nc2ccc3c(c2)OCCO3)n2c(nc3ccccc32)N1 (stereo not given),-5%,-8%
Clc1ccccc1CNC1=NCCNC12CCOCC2,-9%,2%
Cc1cc(C)c2c(CC(=O)Nc3c(C(=O)c4ccc(F)cc4)oc4ccccc34)coc2c1,-3%,-9%
CC1=C2C(=O)CC(C)CC2=Nc2ccccc2N1 (stereo not given),2%,11%
COc1ccccc1Nc1nc(N)nc(CN2CCCCC2)n1,-9%,-3%
COc1cccc(Cn2c(CNS(=O)(=O)c3ccc(C(C)(C)C)cc3)nc3cccnc32)c1,186%[activator],-17%
O=C(/C=C/c1ccco1)NCCc1c[nH]c2ccccc12,-1%,38%[activator]
O=C1c2ccccc2NC(c2csc(-c3ccc(Cl)cc3)n2)N1Cc1ccco1 (stereo not given),-22%,?
CCc1ccccc1NC(=O)CN1CCN(Cc2csc(-c3ccc(Cl)cc3)n2)CC1,?,?
Cc1cc(Cl)ccc1OC(C)c1nc(-c2ccc(Br)o2)no1 (stereo not given),12%,0%
CC(C)Sc1ccccc1C(N)=O,2%,-4%
CN(C(=O)COC(=O)c1cc2ccccc2oc1=O)C1CCCCC1,56%[activator],42%[activator]
CCc1ccc(/C(C)=N/NC(=O)c2ccccc2C)s1,0%,153%[activator]
O=C(c1cc2ccccc2[nH]1)N1CCN(C(=O)C2CC2)CC1,0%,-4%
COc1ccc(Cc2nc3c4c(C)c(C)n(-c5cc(C)ccn5)c4ncn3n2)cc1OC,2%,5%
NC(=O)Nc1ccc([N+](=O)[O-])cc1,17%,19%
Cn1c2ccccc2c2cnn(CC(=O)N3CCN(c4cccc(C(F)(F)F)c4)CC3)c(=O)c21,-5%,-2%
CC(=O)c1ccc(NC(=O)c2cc(-c3ccccn3)nc3ccccc23)cc1,-9%,0%
Cc1ccc(NC(=O)COC(=O)c2cccc(F)c2)cc1S(=O)(=O)N1CCCCC1,15%,0%
COc1ccc(-c2noc(-c3ccc(NC(C)c4ccccc4)c([N+](=O)[O-])c3)n2)cc1OC (stereo not given),-8%,-8%
COc1ccc(Cl)cc1NC(=O)c1ncoc1-c1ccc(C)o1,17%,0%
Cc1ccsc1CN(C)Cc1ccccc1,2%,7%
COc1cc(NC(=O)CCn2cnc3ccccc3c2=O)cc(OC)c1,-12%,8%
COC(=O)c1ccc(CNC(=O)c2ccc(F)cc2)cc1,5%,62%[activator]
Cc1ccc2c(=O)c(C(=O)c3ccccc3)cn(CC(=O)Nc3ccccc3C)c2n1,-6%,-11%
O=C(c1cc(-c2ccc(Cl)cc2)on1)N(Cc1ccc(F)cc1)Cc1ccco1,-9%,0%
CCOC(=O)C1=C(C)Nc2nc(SCC)[nH]c(=O)c2C1c1ccncc1 (stereo not given),12%,11%
Cc1ccc(C)c(N2CCN(C(=O)C3CCN(C(=O)c4cc5sccc5n4C)CC3)CC2)c1,?,?
O=C(NCCc1cccnc1)c1ccc2ccccc2c1,8%,62%[activator]
Cc1cccc2cc(CN(C(=O)c3cccc(Cl)c3)c3ccccc3)c(=O)[nH]c12,7%,8%
O=C(CCn1c(=O)c2cccn2c2ccc(F)cc21)NCCc1ccccc1,-9%,7%
C/C(=N/Nc1c(F)c(F)nc(F)c1F)c1ccc(Cl)c([N+](=O)[O-])c1,61%[activator],50%[activator]
NC(=O)c1ccc(COC(=O)c2cc(S(N)(=O)=O)ccc2Cl)cc1,5%,-3%

# The final five entries of the part above lead into the next.
SMILES,2A Renilla,StopGo FLuc
O=C(NCCc1cccnc1)c1ccc2ccccc2c1,8%,62%[activator]
Cc1cccc2cc(CN(C(=O)c3cccc(Cl)c3)c3ccccc3)c(=O)[nH]c12,7%,8%
O=C(CCn1c(=O)c2cccn2c2ccc(F)cc21)NCCc1ccccc1,-9%,7%
C/C(=N/Nc1c(F)c(F)nc(F)c1F)c1ccc(Cl)c([N+](=O)[O-])c1,61%[activator],50%[activator]
NC(=O)c1ccc(COC(=O)c2cc(S(N)(=O)=O)ccc2Cl)cc1,5%,-3%
COc1ccc2cc(S(=O)(=O)N3CCCC3)c(=O)oc2c1,-18%,-10%
Cc1ccccc1NC(=O)c1c(NC(=O)c2ccccc2)sc2c1CCC2,4%,23%
Cc1cnc2c(S(=O)(=O)NCCCNS(C)(=O)=O)cccc2c1,30%,1%
CCc1ccc(S(=O)(=O)Nc2cccc(-c3ccc(OC)nn3)c2)s1,37%[activator],?
CC(C)(C)C(CN1CCCC1)OC(=O)c1ccccc1 (stereo not given),-12%[1.06 µM],-10%
Cc1ccc(/C(O)=C2\C(=O)C(=O)N(CCCO)C2c2ccccc2)cc1 (stereo not given),3%,1%
Cc1ccc(NC(=O)CN2C(=O)CN=C(c3ccc(F)cc3)c3c2sc(C)c3C)cc1,108%[activator],-21%
Cc1ccc(-c2csc3ncn(CC(=O)c4cc(C)n(C)c4C)c(=O)c23)s1,12%,52%[activator]
O=C1Cc2cc(C(=O)CSc3nnc(-c4ccc(O)cc4)o3)c(Cl)cc2N1,-8%,-5%
CC(=O)c1ccc(OCCOc2ccccc2Cl)cc1,29%,75%[activator]
COc1ccc(OCCNC(=O)c2cnc3ccccc3n2)cc1,3%,129%[activator]
COC(=O)c1ccc(Nc2cc(C)nc3ccccc23)cc1,27%,39%[activator]
C/C(=N/NC(=O)CC#N)c1ccc(C)cc1C,4%,5%
O=C(Nc1cccc(C(=O)O)c1O)c1ccco1,31%,130%[activator]
Cc1ccc(-n2nc(CO)c(C(=O)NCCC(C)C)n2)cc1C,-1%,12%
CCCCN(C(=O)c1cc(CC)c(C)s1)c1c(N)n(CCC)c(=O)[nH]c1=O,0%,7%
COC(=O)c1cc(S(=O)(=O)N2CCN(c3cccc(C)c3)C(C)C2)cn1C (stereo not given),-6%,-19%
Brc1ccc(-c2noc(C34CC5CC(CC(C5)C3)C4)n2)cc1,9%,0%
CCOc1ccc2c(=O)c(-c3ccccc3OC)c(C(F)(F)F)oc2c1,10%,22%
CSc1ccc(CCNC(=O)c2ccc(CS(=O)(=O)c3ccc(Br)cc3)o2)cc1,-7%,-26%
COc1ccccc1NC(=O)CC1C=CCC1 (stereo not given),1%,16%
O=C(NC1CC1)c1cn(-c2ccccc2)nc1-c1cccnc1,2%,11%
O=C(NNC(=O)C1CCC(c2ccccc2)CC1)c1ccccc1Cl (stereo not given),11%,0%
S=C(NCc1ccc(Cl)cc1)C1CCCCC1,-21%,?
CCOc1cc(/C=C2/NC(=O)NC2=O)cc(I)c1OCc1ccc(C(=O)O)cc1,32%[activator],0%
CCn1c(SCC(=O)Nc2ccc(C(C)=O)cc2)nc2c(-c3ccccc3)csc2c1=O,65%[activator],35%[activator]
Cc1c(NC(=O)Nc2ccc(C#N)cc2)c(=O)n(-c2ccccc2)n1C,-8%,-9%
CCCn1c(=O)c2sccc2n2c(CCCC(=O)N3CCN(c4ccccc4OC)CC3)nnc12,-8%,-8%
CCN(CC)S(=O)(=O)c1ccc(Oc2ccccc2)c(NC(=O)c2cnccn2)c1,-1%,-9%
CC(NC(=O)CCc1c[nH]c2ccccc12)c1cccc2ccccc12 (stereo not given),-2%,-11%
CCc1ccc(S(=O)(=O)c2nnn3c2nc(Nc2cc(OC)ccc2OC)c2sccc23)cc1,-13%,-26%
Cc1cccc(N/C=C/C(=O)c2ccc([N+](=O)[O-])cc2)c1,-2%,166%[activator]
Cc1cccc(OCc2ccc(-c3nc(C#N)c(N4CCN(c5ccccc5)CC4)o3)o2)c1,-5%,1%
COc1ccc(-c2c3c(nc4sc(C(=O)Nc5cccc(OC)c5)c(N)c24)CC(C)(C)CC3=O)cc1,41%[activator],14%
CN1CCC(=NNC(=O)C(=O)NCCc2ccccc2)CC1,12%[1.06 µM],0%
CCOc1cccc(NC(=O)C2CC(=O)N(C)C(=Nc3ccc(F)cc3)S2)c1 (stereo not given),17%,-22%
N#Cc1ccc(CSc2nc3c(c(=O)[nH]2)CCC3)cc1,41%[activator],48%[activator]
